High-throughput results (PubChem)
Cruzain Triton = qHTS Assay for Promiscuous and Specific Inhibitors of Cruzain (with detergent); Cruzipain (Trypanosoma cruzi), P25779; purified cruzain, Z-FR-AMC fluorescence, 0.01% Triton; Potency, µM, inactives show max response, negative = inhibition, hits mostly inhibitors; 200,000 tested, 0.43% active; AID 1478, 2009; active means well fitted curve in the direction sought with a large enough effect; inconclusive means small, poorly fitted or top-dose-only effect, or another doubt; inactive means no such curve, though single readings can be large; an effect the other way counts as inactive or inconclusive;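 further: plate controls were neutral wells for no effect and buffer without enzyme for full effect; nearly all actives have a fitted effect of over 40% in size; top concentration of the series not given in the record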
Target sequence (P25779 123-467 limits assumed): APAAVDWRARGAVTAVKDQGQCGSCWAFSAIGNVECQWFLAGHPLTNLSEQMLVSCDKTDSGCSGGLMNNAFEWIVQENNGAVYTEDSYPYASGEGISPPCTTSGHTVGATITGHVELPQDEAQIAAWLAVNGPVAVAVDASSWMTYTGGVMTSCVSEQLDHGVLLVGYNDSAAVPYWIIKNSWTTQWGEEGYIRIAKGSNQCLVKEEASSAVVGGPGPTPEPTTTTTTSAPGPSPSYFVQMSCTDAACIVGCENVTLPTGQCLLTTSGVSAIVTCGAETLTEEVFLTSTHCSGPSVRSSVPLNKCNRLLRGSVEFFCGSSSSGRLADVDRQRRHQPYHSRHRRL
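Steps: dispense cruzain (1.5 nM final) in acetate buffer pH 5.5 with DTT and 0.01% Triton X-100; pin-transfer compounds; incubate 15 min RT; add Z-FR-AMC (2 uM final); read fluorescence every 30 s, using the 60 s intensity change.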
NS1 function inh = qHTS Assay for Inhibitors of Influenza NS1 Protein Function; Potency, µM (highest dose often 46.1 µM), for the others: top-dose activity, positive = more growth; 270,000 tested, 0.4% active; S. cerevisiae slowed by influenza A NS1, growth recovery by OD600; further: actives are rising curves; nearly all actives have a fitted effect of over 50% in size
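A cell-based growth assay was used: compounds that relieve NS1-induced slow growth of budding yeast raise OD600. Assay medium was yeast nitrogen base with ammonium sulphate and -URA supplement, pH 6.0, with 2% galactose.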
SARS PLP yeast = qHTS of Yeast-based Assay for SARS-CoV PLP; 330,000 tested, 0.19% active; Potency, µM (series often up to 32.9 µM), without a hit: top-dose activity, positive = growth rescue; S. cerevisiae expressing SARS-CoV PLpro, growth rescue; control for the full effect not named in the record; further: 0% is about no effect; nearly all actives have a fitted effect of over 55% in size; growth read by luminescence after 48 h
StopGo reporter = High Throughput Screening for Foot and Mouth Disease Virus Antivirals | human cells with a luciferase reporter of 2A StopGo recoding; control for the full effect not named in the record | Potency, µM (series often up to 57.9 µM), without a hit: at the top dose signal change, negative = less light | 410,000 tested, 1.2% active | AID 1159524, 2015; active = well fitted falling curve with a large enough effect; inconclusive = small, poorly fitted or top-dose-only effect; inactive = no such curve, though single readings can be large or run the other way; tested in HEK293T cells; further: on the % scale 0 is the no-effect control and ±100 the full control effect; nearly all actives have a fitted effect of over 45% in size; luciferase light after 4 h
MARV entry inh = qHTS for inhibitors of binding or entry into cells for Marburg Virus; Marburg virus pseudotyped entry inhibition, cell reporter; control for the full effect not named in the record; about a third of the inactives were read at about 46 µM; Potency, µM (titrated, usually from 37.8 µM), for the others: top-dose activity change, negative = inhibition, most hits filed as inhibitors; 300,000 tested, 1.8% active; AID 540276, 2011; active = well fitted inhibition curve with a large enough effect; inconclusive = small, poorly fitted or top-dose-only effect, or effect the other way; inactive = flat fitted curve, though single readings scatter; tested in HEK293 cells; about a fifth of its hits are not listed in these tables; further: on the % scale 0 is the no-effect control and ±100 the full control effect; luciferase read-out
Cruzain noTriton = qHTS Assay for Promiscuous and Specific Inhibitors of Cruzain (without detergent) | Cruzipain (Trypanosoma cruzi), P25779 | purified cruzain, Z-FR-AMC fluorescence, no detergent | Potency, µM, for the others: max response, negative = inhibition, most hits filed as inhibitors | 200,000 tested, 2.3% active | AID 1476, 2009; active means well fitted curve in the direction sought with a large enough effect; inconclusive means small, poorly fitted or top-dose-only effect, or another doubt; inactive means no such curve, though single readings can be large; an effect the other way counts as inactive or inconclusive;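 further: plate controls were enzyme without inhibitor for no effect and buffer without enzyme for full effect; nearly all actives have a fitted effect of over 40% in size; top concentration of the series not given in the record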
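Purified cruzain at 1.5 nM, pre-incubated 15 min with compound at room temperature in 100 mM sodium acetate pH 5.5, 5 mM DTT, 0.00005% Triton X-100. Reaction started with 2 uM Z-FR-AMC; AMC fluorescence increase over 60 s gives rate.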
RE007 growth inh = qHTS Assay for Inhibitors of the HIV-1 protein Vpr; 360,000 tested, 0.21% active; S. pombe RE007 Vpr strain, BacTiter-Glo ATP luminescence, 24 h; control for the full effect not named in the record; Potency, µM (highest dose often 92.2 µM), for the others: top-dose activity change, negative = less growth; active = well fitted falling curve with a large enough effect; inconclusive = small, poorly fitted or top-dose-only effect; inactive = no such curve, though single readings can be large or run the other way;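 further: on the % scale 0 is the no-effect control and ±100 the full control effect; nearly all actives have a fitted effect of over 50% in size; the assay follows cell death caused by Vpr and the record does not say whether a fall means rescue or toxicity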
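Fission yeast RE007 carrying one integrated HIV-1 vpr copy, seeded at OD 0.01 in PMG+AL medium with 23 nL pinned compound. Grown 24 h at 30 degrees; viability read by BacTiter-Glo luminescence after 5 min.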
LASV entry inh = qHTS for Inhibitors of binding or entry into cells for Lassa Virus; Lassa virus pseudotype entry inhibition, cell reporter; control for the full effect not named in the record; 300,000 tested, 1.2% active; Potency, µM (series often up to 37.9 µM), inactives show at the highest dose activity change, negative = inhibition, usual class: inhibitors; active means well fitted inhibition curve with a large enough effect; inconclusive means small, poorly fitted or top-dose-only effect, or effect the other way; inactive means flat fitted curve, though single readings scatter; tested in HEK293 cells; further: on the % scale 0 is the no-effect control and ±100 the full control effect; nearly all actives have a fitted effect of over 50% in size; luciferase read-out
Active calls of the source: *; u = inconclusive; x = not tested or not shown; & = joins results of further samples; [ ] = remark or other dose. Unless noted, the call rests on the fitted dose curve; in most records, active means well fitted rising curve with a large enough effect; inconclusive means small, poorly fitted or top-dose-only effect; inactive means no such curve, though single readings can be large or run the other way. Potency means the concentration at half of the fitted maximal effect.

SMILES	Cruzain Triton	NS1 function inh	SARS PLP yeast	StopGo reporter	MARV entry inh	Cruzain noTriton	RE007 growth inh	LASV entry inh
CN(C)c1cccc(C(=O)Nc2cccc(S(=O)(=O)NC3=NCCC3)c2)c1	x	16%	18%	63%[activator]	6%	x	-2%	11%
CC(=O)C1(C)C(=O)N(c2ccc(C)cc2)C(=O)N1c1ccc(C)cc1 (stereo not drawn)	x	x	x	-3%	7%	x	-5%	13%[46.1 µM]
CC(C)(C)NC(=O)C(c1ccc(F)cc1)N(CCc1ccccc1)C(=O)c1ccn[nH]1 (stereo not drawn)	x	1%	1%	3%	10%[46.1 µM]	x	-8%	-10%
Cc1nn(CC(=O)NCCCN2CCC(Cc3ccccc3)CC2)c(=O)c2cc(-c3ccccc3)nn12	x	8%	26%	-15%	x	x	5%	x
CN(Cc1nccn1C)C(=O)c1cc(COc2ccc3ncccc3c2)on1	x	2%	-1%	u	u	x	-9%	-16%[46.1 µM]
Cc1ccc2oc(=O)n(CCCOc3ccc(Cl)cc3)c2c1	-9.7%	x	x	-11%	u	-2%	x	26%[46.1 µM]
Cc1cc(OC(C)C(=O)N2CCN(CCc3ccccn3)CC2)ccc1Cl (stereo not drawn)	-0.2%	x	x	0%	u	0%	x	9%[46.1 µM]
COc1ccc(OC)c2sc(NC(=O)c3ccc(S(=O)(=O)N4CCOCC4)cc3)nc12	-0.9%	2%	7%	-20%	1%	u	4%	x
O=C(/C=C/c1cccs1)NC(=S)Nc1ccccc1	x	-2%	0%	69%[activator]	u	x	-19%	3%
Cc1ccc(-c2noc(CN(C(=O)c3cccs3)C(C)C)n2)cc1	-4.6%	-47%	-3%	x	-17%	2%	8%	-16%
CN(CC(=O)Nc1ccc(Br)cc1)Cc1ccccc1	x	-2%	-6%	39%[activator]	x	x	3%	x
O=C(CN1CCC(C(=O)c2ccc3c(c2)OCCO3)CC1)NCc1ccccc1	x	-4%	13%	-17%	13%[46.1 µM]	x	12%	-14%[46.1 µM]
COc1cccc(CNC(=O)C2CCCN(c3nc4ccccc4n4cccc34)C2)c1 (stereo not drawn)	-3.8%	x	x	-22%	x	13%	x	-15%[46.1 µM]
COc1ccc(C(=O)C[n+]2ccc(-c3nnc4n3CCCCC4)cc2)cc1	x	0%	1%	-5%	2%[46.1 µM]	x	3%	25%[46.1 µM]
Cc1ccc2oc(C(=O)Nc3sc4c(c3C(=O)NCC3CCCO3)CCC4)cc(=O)c2c1 (stereo not drawn)	-1.4%	x	x	11%	-6%[46.1 µM]	-1%	x	12%[46.1 µM]
CC(CC(=O)N1CCc2ccccc21)S(=O)(=O)c1ccc2c(c1)NC(=O)CO2 (stereo not drawn)	x	9%	1%	-14%	15%[46.1 µM]	x	-5%	-3%[46.1 µM]
CCOP(=O)(OCC)C(Nc1ccccn1)c1ccc(F)cc1 (stereo not drawn)	-3.0%	-6%	-3%	-3%	27%	-5%	22%	26%
c1ccc(SCc2cc(-c3ccccc3)no2)cc1	x	-2%	0%	48%[activator]	-15%[46.1 µM]	x	6%	11%
COc1cc(NC(=O)Cn2c(=O)nc(-c3ccccc3F)c3cc(Cl)ccc32)cc(OC)c1	-5.0%	x	x	-49%	x	-1%	x	u
COc1cc(NC(=O)C2CCN(S(=O)(=O)c3c(C)noc3/C=C/c3cccs3)CC2)cc(OC)c1	-2.5%	x	x	-18%	-14%[46.1 µM]	16µM*	x	14%[46.1 µM]
CCOC(=O)c1ccc(NC(=O)COc2ccc(-n3cnnn3)cc2)cc1	2.4%	1%	0%	-18%	u	-3%	-16%	1%
O=C(CCCN1C(=O)c2ccccc2C1=O)Nc1ccc(Br)cn1	1.3%	6%	5%	5%	14%	-2%	1%	13%
Cc1ccc(C2/C(=C(/O)c3ccccc3)C(=O)C(=O)N2CCN2CCOCC2)o1 (stereo not drawn)	-0.6%	-11%	-6%	16%	-1%	-3%	-8%	1%
CCN(C(=O)C1CCN(c2nc(-c3ccc(OC)cc3)no2)CC1)c1ccc(OC)cc1	x	-23%	-2%	u	x	x	12%	x
CCc1cc2c(=O)n(Cc3ccco3)c(SCC(=O)N3CCCc4ccccc43)nc2s1	-5.8%	7.1µM*	-6%	-14%	u	u	1%	u
CN(C(=O)CSc1nc(-c2cccs2)nc2ccccc12)C1CCS(=O)(=O)C1 (stereo not drawn)	x	x	7%	-21%	-3%	x	-8%	-12%
O=C(Nc1cccc(S(=O)(=O)N2CCOCC2)c1)c1cccc(S(=O)(=O)N2CCCC2)c1	x	x	-2%	-15%	-16%	x	8%	-20%
COc1ccc(N(CC(=O)NCc2ccccn2)S(=O)(=O)c2ccccc2[N+](=O)[O-])c(OC)c1	x	-3%	0%	2%	2%[46.1 µM]	x	-23%	-22%
O=C(NCc1ccccc1)C1CCCN1C(=O)Nc1ccccc1[N+](=O)[O-] (stereo not drawn)	x	8%	-4%	9%	x	x	10%	x
Cc1cc(CN(C)Cc2cn(C)nc2-c2ccc(Oc3ccccc3)cc2)on1	x	-8%	0%	-24%	x	x	-5%	x
CS(=O)(=O)N(CC(=O)NCCc1ccccc1)c1cc(C(F)(F)F)ccc1Cl	-5.5%	x	x	16%	-2%[46.1 µM]	4%	x	-11%[46.1 µM]
Cc1nnc(NC(=O)C2C3C=CC(O3)C2C(=O)O)s1 (stereo not drawn)	4.5%	-14%	9%	x	-5%	7%	x	x
Cn1c(N)c(C(=O)COC(=O)c2cccs2)c(=O)n(C)c1=O	-0.1%	-13%	0%	-25%	3%	-12%	3%	18%
O=C(CCC(=O)Nc1cc(C(F)(F)F)ccc1Cl)N/N=C\c1cc([N+](=O)[O-])ccc1O	x	-6%	11%	-13%	u	x	-10%	u
COc1ccc(Cn2nnnc2C(CC(C)C)N2CCN(c3ccccc3)CC2)cc1 (stereo not drawn)	-0.6%	-104%	-21%	u	-53%	2%	-4%	u
CC1N(C(=O)N2CCOCC2)CCN1S(=O)(=O)c1cccc(C(F)(F)F)c1 (stereo not drawn)	x	-6%	0%	4%	0%[46.1 µM]	x	13%	x
Cc1ccc(SC[C@H](CC(C)C)N2CCN(CCc3ccccc3)CCC2=O)cc1	x	-37%	1%	12%	x	x	8%	x
CCOC(=O)c1ccc(NC(=S)Nc2ccc(Cl)cn2)cc1	x	1%	0%	-23%	x	x	2%	x
C[C@]12CCC3C(CC[C@H]4C[C@@H](O)[C@H](O)C[C@]34C)C1CC[C@@H]2O (stereo partly drawn)	x	x	-2%	-14%	13%[46.1 µM]	x	10%	3%[46.1 µM]
Cc1ccc(-n2ncc3c2CC(C)(C)CC3NC(=O)CCCN2CCCCC2=O)cc1 (stereo not drawn)	x	1%	4%	-5%	x	x	19%	x
Clc1ccc(Cn2ccc(-c3ccc4c(c3)OCO4)n2)cc1Cl	0.2%	-36%	-16%	2%	-6%	-8%	4%	u
Cc1nc(NC(=O)COC(=O)C(NC(=O)c2ccco2)C(C)C)c(Cl)cc1Cl (stereo not drawn)	-6.0%	-7%	-1%	-7%	2%	-8%	-10%	3%
CCC(=O)NC(Nc1cc(C)ccn1)(C(F)(F)F)C(F)(F)F	2.9%	-8%	18%	14%	-1%	-8%	-12%	16%
COc1ccc(CCNCC(O)COc2ccc(OC)cc2C(C)(C)C)cc1 (stereo not drawn)	x	-8%	-3%	-10%	u	x	6%	u
CCCCn1c(O)c(C(CC)=Nc2ccc(OC)cc2OC)c(=O)[nH]c1=O	-6.7%	-3%	-7%	18µM*	u	-1%	19%	u
CCOC(=O)/C(C#N)=C/c1cn(CCC(=O)O)nc1-c1ccc(OC)cc1	x	x	-1%	-4%	14%[46.1 µM]	x	-12%	-1%
CCn1nc(C(=O)Nc2ccccc2N2CCCC2)c2ccccc2c1=O	x	x	-4%	u	u	x	-10%	u
CCNC(=O)C12CCC(C)(C(=O)O1)C2(C)C (stereo not drawn)	x	4%	0%	-19%	22%[46.1 µM]	x	20%	13%[46.1 µM]
Fc1ccc(-n2[nH]nnc2=S)cc1N1CCCC1	-5.8%	-43%	0%	x	16%	u	11%	-4%
COc1ccc(NC(=O)CSc2nnc(-c3ccncc3)n2-c2ccccc2)cc1	0.4%	x	x	-7%	x	-6%	x	-1%[46.1 µM]
COc1ccc(-c2n[nH]c(C)c2-c2cscn2)c(O)c1	x	-1%	1%	-11%	x	x	0%	x
Cc1cc(NO)c(C(C)C)cc1N=O	-5.9%	-1%	12%	22µM*	-27%&-33%	7%	-17%	15%&-11%
CCCNC(=S)N1CCC(n2cnc3ccccc32)CC1	x	1%	1%	-4%	x	x	26%	x
Fc1cc(F)c2nc(N3CCCC3)sc2c1	x	x	-6%	5%	3%[46.1 µM]	x	-5%	3%
Cc1sc(NC(=S)NC(=O)CCc2ccccc2)c(C(N)=O)c1C	-0.1%	2%	-11%	-1%	u	4µM*	-4%	u
CCCN(CC1CC1)C(=S)NC(=O)C1CC1	x	x	10%	21%	9%	x	-1%	15%
COc1ccc(CN2CCN(C(=O)c3cc(-c4cccnc4)nc4ccc(Cl)cc34)CC2)c(OC)c1OC	x	-3%	-1%	-29%	u	x	-3%	u
C=CCN1C(=O)c2ccc(C(=O)OCC(=O)Nc3ccc(S(N)(=O)=O)cc3)cc2C1=O	x	x	-3%	-17%	2%[46.1 µM]	x	-3%	u
COc1cc2nc(SCC(=O)Nc3cccc(C)c3)n3nc(CCn4c(C)nc5ccccc54)nc3c2cc1OC	-3.0%	x	x	-9%	7%[46.1 µM]	-29%	x	10%[46.1 µM]
Cc1nn(-c2ccc(F)cc2)c(-n2cccc2)c1C(=O)NCCCN1CCN(c2ccccc2F)CC1	-0.9%	x	x	-12%	x	5%	x	-2%[46.1 µM]

Hits appear at their usual frequency; any-hit rate near 4.8%.
